Source: PubChem
MgrA DNA FP: modulators of Staphylococcus aureus MgrA DNA binding; fluorescence polarization; inhibition, %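 (about 10 µg/mL by stock and volumes)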; hit rate 0.13% among 84,000;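 active = above 50% in either of two replicates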;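 note: 0% = protein plus DNA without compound and 100% = DNA alone without protein; higher means less MgrA bound to DNA so lower polarization; one replicate is shown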
Sa helicase inh: S. aureus DNA helicase inhibition; purified S. aureus helicase, fluorescence unwinding assay; about half of the hits fall short of the stated cut; hit rate 0.05% among 120,000; inhibition, %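 (tested at about 80 µM)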; AID 485395;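 active = both duplicates at 50% or more, or one of them with a favoured structure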;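 note: 0% = mean of negative control wells and 100% = mean of positive control wells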
* = called active by the depositor; nt = not tested or not shown; & = joins results of further samples.

Values in the order: MgrA DNA FP | Sa helicase inh
Cc1nnc(Sc2cc(C(=O)NCCN(C)Cc3ccccc3)c3ccccc3n2)s1
 : -0.2 | -1
CCN(CC)C(=O)c1sc(N2C(=O)Nc3ccccc3N2O)c(C(=O)OC)c1C
 : -1.8 | 9
CC(NC(=O)C1CC2CCCC(C1)C2=O)c1ccccc1 (configuration not stated)
 : -1.7 | 0
CCn1nnc2cc(C(=O)N3CCC(C(=O)OC)CC3)ccc21
 : nt | -3
C=CCSc1ncccc1C(=O)NCc1ccc(C)cc1
 : -0.4 | 10
O=C(Cn1nc2n(c1=O)-c1ccccc1SC2)c1cccs1
 : nt | 5
Cc1csc(SCC(=O)c2cc3ccccc3oc2=O)n1
 : 2.2 | -9
O=C(CC[n+]1ccc(/C=N/O)cc1)NCc1ccccc1
 : -0.6 | 8
CN1CCC(CN)CC1
 : 4.5 | 14
N#CC1=C(S)NC(=O)CC1c1ccco1 (configuration not stated)
 : nt | 14
Cc1nc(Cc2ccc(OC(C)C)cc2)[nH]c(=O)c1CC(=O)O
 : 1.2 | -6
CCN(CC)c1ccc(CC(=O)NC(C)Cc2ccccc2)cc1 (configuration not stated)
 : 0.2 | 13
Cc1cccc(NC(=O)CCS(=O)(=O)c2ccc3c(c2)n(C)c(=O)c(=O)n3C)c1
 : nt | -14
CC(C)S(=O)(=O)c1cscc1NC(=O)c1ccc(Cl)cc1
 : -1.5 | nt
O=C(Nc1nc(-c2ccc3c(c2)OCCO3)cs1)C1CC1
 : nt | -8
CCN(CC)C(=O)Cn1ncc2c(C)n(Cc3ccccc3F)c(C)c2c1=O
 : -0.9 | 4
N#Cc1cnn(-c2ccc(F)cc2)c1N
 : -0.8 | nt
O=C(NCCOc1ccc2ccccc2c1)c1cccnc1
 : nt | 2
CCCc1nc(C)cc(N2CCOCC2)n1
 : nt | -9
Cc1nccn1-c1nc(-c2ccc(F)cc2)cc(C(F)(F)F)n1
 : -0.1 | 14
CCOc1ccc(C2(C)CC(C)(C)Nc3ccccc32)cc1 (configuration not stated)
 : -2.5 | 4
CS(=O)(=O)N1CCC(C(=O)NCCc2ccccc2)CC1
 : -2.2 | 0
COc1ccc(C(Cl)=C(c2ccc(OC)cc2)c2ccc(OC)cc2)cc1
 : 0.4&1.1 | nt
Cc1nn(CC(C)C)c2sc(C(=O)O)cc12
 : nt | 16
O=C(NCC1CC1)c1ccc(Oc2cc(Cl)cc(Cl)c2)o1
 : -0.2 | nt
Cc1nc(C)c(C(=O)O)cc1C(=O)O
 : nt | 8
CSc1nsc(SC)c1C(=O)NC(=O)Nc1cc(C)on1
 : -0.7 | nt
Cc1ccccc1-c1coc2cc(O)ccc2c1=O
 : -1.1 | 9
O=C(O)CSc1c(-c2cccs2)[nH]c2ccccc12
 : 0.1 | -19
CC(C)N1CN(CCc2ccccc2)c2nc3ccccc3n2C1
 : nt | -5
Cc1ccc(/C=N/N=C2\SCC(=O)N2CC2CC2)cc1
 : nt | 0
CN(C)C(=O)CCN1C(=O)C2C3C=CC(C3)C2C1=O (configuration not stated)
 : nt | 20
CCc1c(C)nc(N)nc1N1NC1=S
 : -1.9 | 8
CCc1cc(-c2[nH]ncc2Oc2ccccc2)c(O)cc1OC
 : nt | 7
CCCC(=O)c1cc2cc([N+](=O)[O-])ccc2oc1=O
 : 3.7 | nt
O=C1c2ccccc2S(=O)(=O)N1CC(O)Cn1c2ccccc2c2ccccc21 (configuration not stated)
 : 1.8 | 5
O=C(NC1CCCC1)c1cc(=O)[nH]c2ccc(Br)cc12
 : 2.5 | -2
Clc1ccc2oc(-c3ccccc3)nc2c1
 : -1.2 | 15
COc1ccc(OCCC(=O)OCc2c(C)noc2C)cc1
 : nt | 1
COc1ccc(CC(=O)N2c3ccccc3Sc3ccccc32)cc1OC
 : 0.0 | 3
CCOC(=O)Nc1cccn(Cc2ccccc2F)c1=O
 : nt | -25
O=C(CCc1c[nH]c2ccccc12)N/N=C/c1ccccc1O
 : 3.0 | 6
c1ccc(CN2CCN(Cn3nnc4ccccc43)CC2)cc1
 : -1.6 | nt
O=C(C(Cc1ccccc1)N1C(=O)C2C3C=CC(C3)C2C1=O)N1CCOCC1 (configuration not stated)
 : 1.8 | -5
Cc1ccc2c(c1)N(C(=O)CCC(=O)NC1CCCC1)CCO2
 : nt | 26
Cc1ccc(OCC(=O)Nc2ccc(S(=O)(=O)N3CCCC3)cc2)cc1
 : -1.5 | 10
CCOc1ccc(OCCCC(=O)O)cc1
 : -3.9 | 15
COc1cc(C2NC(=O)N(C)C(C)=C2C(=O)OCCOc2ccccc2)cc(Br)c1O (configuration not stated)
 : -0.1 | nt
N#Cc1c(N)n(-c2ccc(O)cc2)c2nc3ccccc3nc12
 : 3.0 | 10
CCN(CC)C(=O)C12CCC(C)(C(=O)C1)C2(C)C (configuration not stated)
 : nt | -18
O=S(=O)(NC1CCCCC1NS(=O)(=O)c1ccc(F)cc1)c1ccc(F)cc1 (configuration not stated)
 : 1.4 | 18
CC12COC3(C(=O)Nc4ccccc4)CC1CCC32C (configuration not stated)
 : 1.1 | -4
O=C(c1ccc(COc2c(F)c(F)c(F)c(F)c2F)o1)N1CCOCC1
 : 0.7 | 1
COc1ccc(COCC(O)CS(=O)(=O)Cc2ccc(C)cc2)cc1 (configuration not stated)
 : 2.5 | nt
O=C(O)C12CC3CC(CC(S)(C3)C1)C2
 : -1.9 | 14
N#Cc1ccccc1OCC(=O)Nc1ccc2c(c1)OCCO2
 : nt | 6
COc1ccc(/C=C/C(=O)Nc2ccncc2)cc1OC
 : -3.6 | -6
CC1(C)C2CCC1(CS(=O)(=O)n1cnc3ccccc31)C(=O)C2 (configuration not stated)
 : 0.2 | -11
O=C(CCN1C(=O)c2cccnc2Sc2ccccc21)N1CCc2ccccc21
 : nt | -3
CC(C)c1ccc2nc(Nc3nc4ccc(S(C)(=O)=O)cc4s3)sc2c1
 : -0.4 | 4

Continuation:
Values in the order: MgrA DNA FP | Sa helicase inh
Cc1cccc(S(=O)(=O)NCc2cccc(C(F)(F)F)c2)c1
 : nt | 16
Cc1ccc(Cn2nc(C)c(/C=N/N3CCOCC3)c2C)cc1
 : nt | 9
COc1ccc(-n2cc(C(=O)NCCOc3cccc(-n4cnnn4)c3)nn2)cc1
 : nt | -15
Cc1nc(-c2ccccn2)n2nnnc2c1Cl
 : -0.8 | nt
COc1ccc(OCC(=O)N2CCN(S(C)(=O)=O)CC2)cc1
 : -3.9 | 5
C=CCn1c(=N)c(C#N)cc2c(=O)n3cccc(C)c3nc21
 : nt | -38
O=C(NCCc1ccccc1)C1CCN(c2cnccn2)CC1
 : nt | 2
CCOc1cc(/C=C2\SC(=S)N(c3c(C)n(C)n(-c4ccccc4)c3=O)C2=O)ccc1O
 : 1.4 | nt
O=C(NCCN1CCOCC1)c1cc2ccc3cccnc3c2[nH]1
 : nt | -21
CCCCN(Cc1ccco1)C(=O)c1cc2c(=O)n(CC)c3ccccc3c2s1
 : nt | -10
O=C(O)CSC1=NCCS1
 : -3.0 | -4
COc1ccc(S(=O)(=O)n2ccnc2)cc1C
 : nt | -4
NCc1ccoc1C(=O)O
 : 13 | 3
Cc1occc1-c1nnc(SC(C)C(=O)NC(C)c2ccc(Cl)cc2Cl)n1C (configuration not stated)
 : nt | -1
CN=c1scc(-c2ccc(OC)cc2)n1/N=C(\C)c1cccnc1
 : nt | -10
Cc1ccc(S(=O)(=O)N2CCCC3(CCCCC3)C2)cc1
 : 1.6 | 13
CCOC(=O)C1CCCN(c2c3c(nc4cc(-c5ccc(F)cc5)nn24)CCCC3)C1 (configuration not stated)
 : -4.2 | 3
COC(=O)c1[nH]c2c(c1C)C(=O)CC(c1ccccc1)C2 (configuration not stated)
 : 1.1 | 8
CC1CCCC(NC(=O)CSCc2cnn(-c3ccccc3)c2-n2cccc2)C1C (configuration not stated)
 : 0.1 | 23
Cc1ccsc1CNn1nnnc1N
 : nt | -10
O=C(COC(=O)/C=C/c1ccc(I)o1)CN1CCN(C(=O)c2ccco2)CC1
 : nt | -5
CC(C)C(=O)Nc1ccc2oc(-c3ccncc3)nc2c1
 : nt | 13
CCOC(=O)C1=C(N)OC2=C(C(=O)CCC2)C1c1ccc2c(c1)OCO2 (configuration not stated)
 : -2.1 | nt
Nc1cc(C2CC2)nn1-c1ccccc1
 : -4.1 | nt
COc1cccc(CNC(=O)N2CC3CCCN3c3ccccc32)c1 (configuration not stated)
 : nt | 0
O=C(CSc1ncn[nH]1)Nc1nccs1
 : 1.1 | -6
CN(C)S(=O)(=O)c1cccc(CSc2nnc(Cc3cccs3)n2C2CCCCC2)c1
 : nt | -13
CC(C)Cc1ccc(C(C)C(=O)N2CCN(c3ccc(C(F)(F)F)cn3)CC2)cc1 (configuration not stated)
 : -0.2 | nt
COc1cc(S(=O)(=O)N(C)C2CCCCC2)c(OC)cc1Cl
 : nt | -16
CCOC(=O)c1sc(NC(=O)c2ccc(F)cc2)nc1-c1ccccc1
 : nt | 21

An excerpt of the results above:
Values in the order: MgrA DNA FP | Sa helicase inh
Cc1nnc(Sc2cc(C(=O)NCCN(C)Cc3ccccc3)c3ccccc3n2)s1
 : -0.2 | -1
CCN(CC)C(=O)c1sc(N2C(=O)Nc3ccccc3N2O)c(C(=O)OC)c1C
 : -1.8 | 9
CC(NC(=O)C1CC2CCCC(C1)C2=O)c1ccccc1 (configuration not stated)
 : -1.7 | 0

Remaining list, next part:
Values in the order: MgrA DNA FP | Sa helicase inh
COCC(C)n1c(C)csc1=Nc1ccc(Cl)c(F)c1 (configuration not stated)
 : nt | 13
CCOC(=O)c1nnn2c1nc(N1CCN(c3ccccc3)CC1)c1ccccc12
 : -1.2 | nt
CSc1nc(CN2CCN(S(=O)(=O)Cc3ccccc3)CC2)cc(=O)[nH]1
 : nt | -5
N#CCC(=O)NS(=O)(=O)c1ccc(Cl)cc1
 : nt | -3
CCOC(=O)CNc1nc2ccccc2n2cnnc12
 : 1.1 | -10
COc1ccc(Br)cc1/C=C1\N=C(c2cc([N+](=O)[O-])ccc2Cl)OC1=O
 : -1.3 | nt
O=C(c1cccs1)N1c2ccccc2C=Cc2ccccc21
 : 0.5 | 16
COc1ccc(C2=NC(=O)/C(=C\c3cc(OC)c(OC)c(OC)c3)O2)cc1
 : 3.3 | -21
Nc1nc(=S)c2[nH]cnc2[nH]1
 : 1.6 | nt
N#CCc1c2ccccc2c(CC#N)c2ccccc12
 : 3.9 | nt
CC1C/C(=N/Nc2nc3ccccc3[nH]2)CC(C)(C)C1 (configuration not stated)
 : nt | 11
Clc1ccc(OCCN2CCN(c3nc4ccccc4c4nc(-c5ccncc5)nn34)CC2)cc1
 : nt | -19
Cc1ccc(CSc2nc3ccc(C(=O)NCCN4CCCC4)cc3n2C)cc1
 : 0.2 | -10
CNC(=O)CSc1ccc(Cl)cc1
 : -2.8 | 12
O=S(=O)(c1ccccc1)n1ccc(-c2ccc3c(c2)CCO3)n1
 : 0.0 | nt
NS(=O)(=O)c1ccc(CCNc2nc3c(-c4ccc(Cl)cc4)nnn3c3ccccc23)cc1
 : -1.6 | 8
COc1ccc(N2CCN(C(=O)COc3cc(=O)n(C)c4ccccc34)CC2)cc1
 : nt | 15
CCC(=O)Nc1cccc(-c2ccc(N3CCC(C)CC3)nn2)c1
 : nt | 20
Cn1cccc1CNC(=O)c1cc(F)cc2c1OCOC2
 : -3.7 | nt
O=C(NC(O)C(=O)c1ccccc1)c1ccccn1 (configuration not stated)
 : -0.9 | -23
O=C(CN1C(=O)c2ccccc2C1=O)Nc1ccccc1C(=O)N1CCCC1
 : 0.7 | 3
COc1cc(CNc2ccc3[nH]c(=O)[nH]c3c2)cc(Br)c1OCC(=O)NC(C)(C)C
 : -0.9 | 6
Cc1ccc(C(=O)NCC(=O)NC2CC2)cc1
 : nt | 8
CC[C@H]1OC(=O)C[C@@H](O)[C@H](C)[C@@H](O[C@@H]2O[C@H](C)[C@@H](O[C@H]3C[C@@](C)(O)[C@@H](O)[C@H](C)O3)[C@H](N(C)C)[C@H]2O)[C@@H](CC=O)C[C@@H](C)C(=O)/C=C/C(C)=C/[C@@H]1CO[C@@H]1O[C@H](C)[C@@H](O)[C@@H](OC)[C@H]1OC
 : 1.1 | nt
CCc1nc2scc(-c3cccs3)c2c(=O)o1
 : 0.9 | nt
Cc1ccc(S(=O)(=O)N2CCN(c3ccccc3)CC2)s1
 : nt | -7
CCOC(=O)CN1CCN(C=O)CC1
 : 1.9 | 15
CCc1nc2ccccc2c(=O)n1CCCCn1c(CC)nc2ccccc2c1=O
 : nt | 7
CCOC(=O)N1CCN(S(=O)(=O)/C=C/c2ccccc2)CC1
 : nt | 2
Oc1ccccc1C1OC2CCCCC2C2=CCCCC21 (configuration not stated)
 : -1.2 | -1

Six records picked at random from those above:
Values in the order: MgrA DNA FP | Sa helicase inh
O=C(CN1C(=O)c2ccccc2C1=O)Nc1ccccc1C(=O)N1CCCC1
 : 0.7 | 3
Cn1cccc1CNC(=O)c1cc(F)cc2c1OCOC2
 : -3.7 | nt
CCOC(=O)N1CCN(S(=O)(=O)/C=C/c2ccccc2)CC1
 : nt | 2
Cc1ccc(S(=O)(=O)N2CCN(c3ccccc3)CC2)s1
 : nt | -7
Oc1ccccc1C1OC2CCCCC2C2=CCCCC21 (configuration not stated)
 : -1.2 | -1
O=C(NC(O)C(=O)c1ccccc1)c1ccccn1 (configuration not stated)
 : -0.9 | -23

Next section:
Values in the order: MgrA DNA FP | Sa helicase inh
Cc1ccc(NC(=O)c2noc3c2CCCC3)cc1
 : nt | 11
O=C1CC(C(=O)Nc2ccc(C(=O)O)cc2)C(c2ccccc2)O1 (configuration not stated)
 : -4.5 | 6
CCNc1nc2nonc2nc1NCC
 : -3.0 | 0
CCCn1cnc2cc(NCc3ccc(OCC)cc3)ccc21
 : -0.1 | -2
COc1ccc(N2CCN(c3nc(NCCc4ccc(OC)c(OC)c4)nc(OC)n3)CC2)cc1
 : nt | -8
O=C(Nc1ccccc1)C(Cc1cccs1)c1nn[nH]n1 (configuration not stated)
 : 1.6 | -5
CCOC(=O)N1CCC(c2cc(=O)n3[nH]ccc3n2)CC1
 : nt | -13
COc1ccc(NC(=O)COC(=O)C2CCCCN2S(=O)(=O)c2cccc3nsnc23)cc1 (configuration not stated)
 : nt | 5
CCOc1ccc(NC(=O)c2cc(Cl)nc3ccccc23)cc1
 : 2.2 | -28

Not all compounds are listed; count on the stated rates, not on these rows.
